AID504770 – growth inhibition of E. coli YBA685, primary screen, V. cholerae RctB inhibitors. E. coli YBA685 rctB-dependent plasmid, OD600 growth, 3 h; active compounds read low. z-score (test concentration not listed). actives 0.27% (n = 130,000);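 active means z-score under -2 on both plates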;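 further: wells of about 30 µL received 100 nL stock; score is relative to mean and SD of the test wells; the first replicate is given; strong numbers were not always called active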
Ba CapD inh – Bacillus anthracis CapD inhibitors, primary screen, biochemical, fluorescence intensity. actives 0.23% (n = 140,000). CapD gamma-glutamyltranspeptidase (Bacillus anthracis Ames Ancestor). z-score (concentration not given with the values). purified CapD enzyme, fluorescence intensity read-out; active compounds read low; some hits fall short of the stated cut. AID 492967, 2010;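 active means z-score under -4 in either of two replicates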;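 further: stock transfer was 100 nL into about 40 µL; score is relative to mean and spread of the plate; one replicate is shown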
An asterisk follows results filed as active; x = not tested or not shown.

The opening 19 entries (preview)
SMILES	AID504770	Ba CapD inh
N#Cc1c(O)c(C=C2C=CC(=O)C=C2)n2ccccc12	-0.4	x
Cc1cc(C)c(NC(=O)CSc2nncn3c2cc2occc23)c(C)c1	-0.5	-0.36
Cc1ccc(-c2csc3ncn(Cc4cc(=O)n5ccsc5n4)c(=O)c23)s1	-0.8	x
COCCNC(=O)c1nc(-c2ccccc2)oc1C(F)(F)F	x	0.17
CCOC(=O)N1CCC(c2nnc(-c3ccc(Cl)cc3Cl)o2)CC1	1.2	-0.58
COc1cc2c(cc1OC)CN(C(C)C(=O)NC(C)(C#N)C(C)C)CC2 (centres undefined)	-1.2	x
Cc1nc2ccc(-n3cccc3)cc2o1	-0.15	-0.45
CC1=CC(C)C2(CO)COC(c3ccccc3O)C1C2C (centres undefined)	x	-0.38
CC(C)(C)c1ccc(CNC(=O)C2CCCN2C(=O)Nc2ccccc2)cc1 (centres undefined)	0.65	-0.75
O=C(NC1(C(=O)Nc2ccc(Br)cc2)CCCCC1)c1cccc(O)c1	x	-0.45
O=C(c1ccc(Br)cc1)N(c1ccccn1)C1CCCCC1	1.4	-0.41
CC(=O)Nc1ccc(Nc2ccccc2)cc1	-0.65	x
O=C(Nc1nc2c(s1)CCCC2)c1ccncc1	0.35	-0.97
COC(=O)Cn1cncn1	-0.45	0.15
Cc1cc(Cl)ccc1OC(=O)c1sccc1C	0.5	0.68
Cc1ccc(S(=O)(=O)N2CCN(C(=O)CN3CCOCC3)C2C(C)C)cc1 (centres undefined)	-0.65	x
O=S(=O)(c1cccc2cccnc12)N1CCN(Cc2ccc3c(c2)OCO3)CC1	-1.1	-0.14
N#Cc1c2n(c3c(=O)n(Cc4ccccc4Cl)cnc13)CCCC2	x	-0.16
CC(C)N1C(=O)C(O)(CC(=O)c2ccccc2O)c2ccccc21 (centres undefined)	-0.55	-1.8

The listing, from the first entry:
SMILES	AID504770	Ba CapD inh
N#Cc1c(O)c(C=C2C=CC(=O)C=C2)n2ccccc12	-0.4	x
Cc1cc(C)c(NC(=O)CSc2nncn3c2cc2occc23)c(C)c1	-0.5	-0.36
Cc1ccc(-c2csc3ncn(Cc4cc(=O)n5ccsc5n4)c(=O)c23)s1	-0.8	x
COCCNC(=O)c1nc(-c2ccccc2)oc1C(F)(F)F	x	0.17
CCOC(=O)N1CCC(c2nnc(-c3ccc(Cl)cc3Cl)o2)CC1	1.2	-0.58
COc1cc2c(cc1OC)CN(C(C)C(=O)NC(C)(C#N)C(C)C)CC2 (centres undefined)	-1.2	x
Cc1nc2ccc(-n3cccc3)cc2o1	-0.15	-0.45
CC1=CC(C)C2(CO)COC(c3ccccc3O)C1C2C (centres undefined)	x	-0.38
CC(C)(C)c1ccc(CNC(=O)C2CCCN2C(=O)Nc2ccccc2)cc1 (centres undefined)	0.65	-0.75
O=C(NC1(C(=O)Nc2ccc(Br)cc2)CCCCC1)c1cccc(O)c1	x	-0.45
O=C(c1ccc(Br)cc1)N(c1ccccn1)C1CCCCC1	1.4	-0.41
CC(=O)Nc1ccc(Nc2ccccc2)cc1	-0.65	x
O=C(Nc1nc2c(s1)CCCC2)c1ccncc1	0.35	-0.97
COC(=O)Cn1cncn1	-0.45	0.15
Cc1cc(Cl)ccc1OC(=O)c1sccc1C	0.5	0.68
Cc1ccc(S(=O)(=O)N2CCN(C(=O)CN3CCOCC3)C2C(C)C)cc1 (centres undefined)	-0.65	x
O=S(=O)(c1cccc2cccnc12)N1CCN(Cc2ccc3c(c2)OCO3)CC1	-1.1	-0.14
N#Cc1c2n(c3c(=O)n(Cc4ccccc4Cl)cnc13)CCCC2	x	-0.16
CC(C)N1C(=O)C(O)(CC(=O)c2ccccc2O)c2ccccc21 (centres undefined)	-0.55	-1.8
O=C1c2cccc3cccc(c23)C(=O)N1Cc1ccccn1	x	34
CCN(/C=N/c1sc2c(c1C#N)CCCCC2)CC	-0.95	-0.31
N#C/C(=C\c1ccc(Cl)c(Cl)c1)c1nc2ccccc2[nH]1	x	6.9
CCCCCn1c(Sc2nc3ccccc3c(C)c2C#N)n[nH]c1=O	1.2	-0.71
CC(C)c1cc(C(=O)O)n[nH]1	-0.4	x
COc1cc(N(C)C)ccc1CN1CCC(NC(=O)OCCc2cccc3ccccc23)C1 (centres undefined)	x	0.075
CCCc1cc(=O)[nH]c(SCC(=O)NC2CCCC2)n1	-0.45	x
CC1CCCC(C)N1C(=O)c1cc2sccc2n1Cc1ccc(F)cc1 (centres undefined)	-0.15	x
O=C(OCC1CCCN2CCCCC12)C1CCNCC1 (centres undefined)	-0.55	-0.35
CCCCOc1ccc(C2C(C#N)=C(N)OC3=C2C(=O)CC(C)(C)C3)cc1OC (centres undefined)	x	-0.28
O=C1c2ccccc2C(O)(c2ccccc2)N1c1ccc2c(c1)OCCO2 (centres undefined)	-0.6	-0.075
CCOc1ccc(N2C(=O)CC(Sc3nc(O)c(CC)c(=O)[nH]3)C2=O)cc1 (centres undefined)	-1.1	-0.045
COC(=O)CN1Cc2ccccc2C1=O	-0.1	-0.17
CC(C)C(=O)NCc1n[nH]c(=O)c2ccccc12	-0.75	x
COC(=O)C1=C(N)OC2=C(C(=O)CC(c3ccccc3)C2)C1c1cccc(Cl)c1Cl (centres undefined)	x	1.4
COc1ccc(NC(=O)C(NC(C)=O)C(=O)NCc2ccccc2OC)cc1 (centres undefined)	x	-0.74
CC(C)(C)C1(O)CC(C(F)F)=NN1C(=O)c1ccccc1 (centres undefined)	1.5	x
COc1ccc(Nc2ncnc3c2cnn3-c2ccccc2)cc1	1.2	-0.48
COc1ccc(OC)c(-c2nc(-c3ccc(Br)cc3)c(-c3ccc(Br)cc3)[nH]2)c1	x	10
CC(C)(C)c1cc(C(C)(C)C)c2oc(C(=O)O)cc(=O)c2c1	0.9	13
O=C1C(=O)N(CCN2CCOCC2)C(c2ccc(F)cc2)/C1=C(\O)c1ccc(F)cc1 (centres undefined)	-0.85	-1.3
CCC(=O)NC(C)C(c1cccs1)N1CCOCC1 (centres undefined)	1.3	0.78
CCn1c2ccccc2c2cc(CN3CCN(C(=O)OCc4cc(Br)ccc4OC)CC3)ccc21	x	10
O=C(Cc1c[nH]c2ccccc12)OCCOc1ccccc1	-0.8	x
Brc1ccc(-c2cc3n(n2)CCc2nc4ccccc4n2-3)cc1	-1.6	x
CCn1c2[n+](c3ccccc3c1=O)CCC2	0.65	0.12
CCOc1cc(C2C(C#N)=C(N)Oc3n[nH]c(C(C)(C)C)c32)ccc1OC(=O)N1CCOCC1 (centres undefined)	x	-0.18
N=C1SC2CS(=O)(=O)CC2N1CCc1ccccc1 (centres undefined)	-0.65	-0.21
C=CCNC(=S)N1CCN(C(c2ccccc2)c2ccccc2)CC1	-0.8	-1
CS(=O)(=O)Cc1cccc(C(=O)N2CCc3ccccc32)c1	0.65	x
Nc1nc2cc3c(cc2s1)OCCO3	1.4	x

New compounds follow:
SMILES	AID504770	Ba CapD inh
C[N+](C)(CCC#N)Cc1cccc2ccccc12	0.6	0.28
CCOC(=O)c1c(C)n(C)c2ccc(OCC(O)CN3CCN(CCO)CC3)cc12 (centres undefined)	-0.2	0.2
CC(C)c1nc2ccccc2c2c1C(=O)N(CCC1CCCN1C)C2=O (centres undefined)	x	0.78
Cc1ccc(-c2nc3ccccc3n3cc4c(=O)n(C)c(=O)n(C)c4c23)cc1	0.55	4.5
C#CCOc1ccc(/C=C2/C(=O)N(c3ccc(Cl)c(C(=O)O)c3)N=C2C)cc1OCC	x	0.05
CCn1cc(-c2n[nH]c(=S)n2C)c2ccccc21	0.5	0.56
Cc1ccc(OCC(O)CN2CCCCC2)c(C)c1 (centres undefined)	-0.15	0.17
FC(F)(F)C1(C(F)(F)F)N=C(c2ccncc2)OC(N2CCOCC2)=N1	x	-0.41
Cc1cc(C)n2nc(SCc3ccccc3C(=O)N3CCN(c4ccc(F)cc4)CC3)nc2n1	-0.45	x
C=CCN(C(=O)c1ccccc1SCC(=O)NCc1ccco1)c1nc2c(s1)CCCC2	2	x
Cc1ccc(S(=O)(=O)NNC(=O)c2cc3c4ccccc4n(C)c3s2)cc1	x	11
C=CCNC(=O)CC1CCCCC1	-0.05	0.17
O=C(CN1C(=O)C2CC=CCC2C1=O)N1CCSC1=NCc1ccccc1 (centres undefined)	0.4	x
CCc1cc2c(SCC(=O)N(C)C3CCS(=O)(=O)C3)ncnc2s1 (centres undefined)	0.15	x
Cc1ccc2cccc(SC(=O)NCC3CCCO3)c2n1 (centres undefined)	-0.95	38
CC(C(=O)Nc1ccccc1C#N)N(C)Cc1nc2ccccc2c(=O)[nH]1 (centres undefined)	0.05	x
CC(C)CN(CC(C)C)CC(O)CN(c1ccccc1)S(=O)(=O)c1ccc2ccccc2c1 (centres undefined)	x	0.71
Cc1cc(C)c(C#N)c(SCC(=O)OC(C)C)n1	-0.65	x
CCOC(=O)c1c(CNCc2ccccc2)n(-c2ccccc2)c2cc(Br)c(OC)cc12	x	-0.27
CCC(=O)NCCn1ccc2ccccc21	0.25	0.03
CN(C)c1nc(Oc2ccc(=O)n(C)n2)nc(N(C)C)n1	1.8	-0.45
CC(/C=C/c1ccccc1)NC(N)=O (centres undefined)	-1.2	-0.09
Cc1cc(/C=C(\C#N)S(C)(=O)=O)c(C)n1-c1ccc(C(F)(F)F)cc1	0.35	0.38
Cc1cccc(S(=O)(=O)CC(O)(c2ccccc2)c2ccccc2)c1	x	-0.28
CCCCCNc1ncnc2c1sc1nc(N3CCOCC3)c3c(c12)CCCC3	x	1.6
O=C(CSc1nncn1-c1ccccc1)NCC(F)(F)F	-1.1	x
CC(C)(C)NC(=O)N1CCCN(c2ccc(C(F)(F)F)cn2)CC1	1.4	8.3
COC(=O)c1oc2c(c1C)C1(CCC2)SCCS1	2.9	-1.2
O=C1CC2CCCC(CN1)N2CC(=O)NCc1ccco1 (centres undefined)	-0.35	x
COc1ccc(C2(C#N)CCOCC2)cc1	-0.5	0.15
CN1CCCN(C(=O)c2ccc(Cl)cc2)CC1	0.05	0.29
COc1cc2cc(C3CC(c4ccco4)=NN3C(C)=O)c(Cl)nc2cc1OC (centres undefined)	0.05	x
CC(C)C(NC(=O)c1cccs1)C(=O)NC1CCCCC1 (centres undefined)	-0.45	0.61
C=CCc1ccccc1OCCOc1ccc(-c2nc3sc4c(c3c(=O)[nH]2)CCCC4)cc1OC	x	1.2
Cn1c(CSc2ccccc2)n[nH]c1=S	x	0.085
Cc1cccc2c(Sc3ccccc3)c(CC(=O)Nc3ccccc3)n(Cc3ccccc3)c12	x	19
CC(C)c1c(Br)c(=O)oc2c3c4c(cc12)CCCN4CCC3	0.45	23
CC(=O)SCC(C)C(=O)Nc1ccccc1 (centres undefined)	0.2	0.24
CCOC(=O)C1CCCN(C(=O)CSc2nc(N)c3ccccc3n2)C1 (centres undefined)	-0.3	x
CC1CCN(CCCNC(=O)c2cc3c(=O)n(C)c4ccccc4c3s2)CC1	1.7	12
COc1ccc(CCN2C(=O)C=CC2=O)cc1	-0.25	-0.35
Cc1ccc(C=Nc2ccc(Br)cc2)cc1	-1.1	-0.57
CC1CC(C)CN(S(=O)(=O)c2ccc3c(c2)C(=O)c2cc(S(=O)(=O)N4CC(C)CC(C)C4)ccc2-3)C1 (centres undefined)	x	-0.33
COc1ccc(-n2c(C(C)N3CCCCC3)n[nH]c2=S)cc1 (centres undefined)	-5.2*	x
Cc1ccccc1-n1nc(C)c2c(C(=O)NN)cc(-c3ccncc3)nc21	0.5	x
Cc1ccsc1C=Nc1ccc(C(N)=O)cc1	0.4	1
COc1ccc(CO/N=C2\C(=O)N(c3ccccc3)c3ccccc32)cc1	x	-0.71
N#CC1=C2SCC(O)(c3ccco3)N2C(=O)CC1c1ccccc1F (centres undefined)	-2.2	0.17
CCOC(=O)c1c(NC(=O)C(C)Sc2nnc(CNC(=O)c3ccccc3F)n2C2CCCCC2)sc2c1CCC2 (centres undefined)	x	0.36
N#CC(Nc1ccc(C(F)(F)F)cc1)c1ccccc1 (centres undefined)	0.25	0.56

(more compounds)
SMILES	AID504770	Ba CapD inh
COc1ccc(Cn2c(SCC(=O)Nc3cccc(Cl)c3)nc3ncccc3c2=O)cc1	0.45	0.1
O=C(Nc1cccc2ccccc12)N1CCC(Nc2nc3ccccc3o2)CC1	0.5	6.5
O=C1CC(c2ccco2)CC2=C1C(c1ccccc1)C1=C(N2)c2ccccc2C1=O (centres undefined)	0.8	0.36
CN(C)c1ccc(/C=C(\C#N)c2ccc([N+](=O)[O-])cc2)cc1	x	0.25
CCOC(=O)c1cc(C#N)c(C)nc1N(CC)CC	0.1	2.3
CCOC(=O)/C(C#N)=C/c1ccc(-c2ccc(Cl)c(C(=O)OC)c2)o1	1	x
COc1ccc(Oc2c(Cl)cnn(-c3cccc(C)c3C)c2=O)cc1	x	0.21
COC(CNC(=O)CN1CCN(Cc2ccc(C)cc2)C1=O)OC	0.15	-0.17
CCn1c(CCC(=O)N2CCN(c3ccccn3)CC2)nc2cc(S(N)(=O)=O)ccc21	0.05	x
CN(c1ccc(Br)cc1)S(=O)(=O)c1ccc2[nH]cc(C(=O)N3CCC4(CC3)OCCO4)c(=O)c2c1	x	0.1
CCN(CC(=O)NCc1cccs1)C(=O)c1ccc(N2CCCC2=O)cc1	0.1	x
O=C(Nc1ccc(NC(=O)c2ccc(Br)c(S(=O)(=O)N3CCOCC3)c2)cc1)c1ccccc1	x	0.12
COC(=O)C(NS(=O)(=O)c1cccc(C(F)(F)F)c1)c1ccccc1 (centres undefined)	x	-0.44
COc1cccc(NC(=O)CCc2ccc(S(C)(=O)=O)cc2)c1	x	0.63
